Vaccinia stage: blocks a specific stage of Vaccinia orthopoxvirus infection; AID 1053133; 89,000 compounds, 0.01% hits; Vaccinia-infected cells, mCherry/Venus stage reporter fluorescence; stronger effect = lower value; some inactives read as strong as hits; activity change (mCherry), % (test concentration not listed);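 active = mCherry past -33% and 40 or more points under the early reporter, replicates agreeing; inconclusive = past -33% without that gap or agreement; tested in A549 cells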;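 also: scaled between vehicle wells and reference inhibitor wells; 23 nL library stock went into each well; one replicate is shown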
Vaccinia stage Venus: recorded beside Vaccinia stage, whose call it bears; activity change (Venus), %; measured here: Venus reporter, other viral stage;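 negative = less Venus signal; first of two replicates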
Active calls of the source: *; ? = inconclusive; . = no result given. Not all compounds are listed; count on the stated rates, not on these rows.

molecule	Vaccinia stage Venus	Vaccinia stage
O=C(C[C@H]1C=C[C@@H](NS(=O)(=O)c2ccc(F)cc2)[C@H](CO)O1)N1CCc2ccccc2C1	8.6	6.5
CC(C)C(=O)Nc1ccc2c(c1)C(=O)N(C)[C@@H]1CC[C@H](CC(=O)NCc3ccc(F)cc3)O[C@@H]1CO2	13.3	-0.6
COc1cc2c(cc1O)C(c1cccs1)N(Cc1sc3ccccc3c1Cl)CC2 (stereo not given)	-7.8	-12.9
CC(C)NC(=O)Nc1ccc2c(c1)C(=O)N([C@H](C)CO)C[C@H](C)[C@@H](CN(C)Cc1ccc(C(=O)O)cc1)O2	2.3	21.3
O=C(C[C@@H]1CC[C@@H](NC(=O)NC2CCCCC2)[C@@H](CO)O1)NCc1ccccc1	16.9	13.3
COc1ccccc1-c1cn(CC[C@H]2CC[C@@H](NS(=O)(=O)c3ccccc3C)[C@H](CO)O2)nn1	-8.5	-20.6
COc1ccc(S(=O)(=O)Nc2ccc3c(c2)C(=O)N([C@@H](C)CO)C[C@@H](C)[C@H](CN(C)S(=O)(=O)c2ccc(C)cc2)OCCCC[C@H](C)O3)cc1	-27.5	-25.3
CO[C@H](CN(C)S(=O)(=O)c1ccc(Cl)cc1)[C@@H](C)CN([C@@H](C)CO)S(=O)(=O)c1cccc(Cl)c1	.	?
C[C@@H]1CN([C@@H](C)CO)C(=O)c2cccc(NS(C)(=O)=O)c2O[C@H]1CN(C)Cc1ccc(C(F)(F)F)cc1	-3.0	-8.2
CC(C)NC(=O)N(C)C[C@H]1Oc2cc(C#Cc3ccccn3)ccc2S(=O)(=O)N([C@H](C)CO)C[C@H]1C	6.8	1.9
CN1CCN(C(=O)C[C@@H]2CC[C@@H]3[C@H](COC[C@H](O)CN3Cc3cccc(-c4ccncc4)c3)O2)CC1	.	?
COC(=O)c1ccc(CN2CC(=O)N3[C@H](C2)[C@H](c2ccc(-c4ccccc4F)cc2)[C@@H]3CO)cc1	7.2	18.1
C=CCN1C(=S)N[C@@H]2c3ccccc3O[C@@]1(C)[C@@H]2C(=O)OCC	.	?
CCCN1[C@H](CO)[C@H](c2ccc(C#CC3CCCCC3)cc2)[C@@H]1CNC(=O)C1CC1	1.1	-8.8
C[C@H](CO)N1C[C@H](C)[C@H](CN(C)S(=O)(=O)c2ccccc2C#N)OCc2cnnn2CCCC1=O	0.5	2.0
CCCN(C)C[C@@H]1OCCCC[C@H](C)Oc2ccc(NC(=O)Nc3ccc(C(F)(F)F)cc3)cc2C(=O)N([C@H](C)CO)C[C@@H]1C	-25.7	-33.9
C[C@H](NC(=O)C[C@H]1C[C@@H]2c3cc(NC(=O)NC4CCCC4)ccc3O[C@@H]2[C@@H](CO)O1)c1ccccc1	4.2	-1.0
O=C(Nc1ccc(F)cc1)N1CC(=O)N2[C@H](CO)[C@H](c3ccc(-c4cccc(F)c4)cc3)[C@@H]2C1	.	?
CNC[C@H]1Oc2ccc(NC(=O)CCN3CCOCC3)cc2CC(=O)N([C@@H](C)CO)C[C@@H]1C	6.0	3.4
COc1ccccc1NC(=O)N1CCCCN2[C@H](C1)[C@@H](c1ccc(-c3cccc(C)c3)cc1)[C@@H]2CO	-12.6	-1.9
COc1ccc(CN(C)C[C@@H]2OCCCC[C@@H](C)Oc3ccc(NC(=O)c4ccncc4)cc3C(=O)N([C@H](C)CO)C[C@H]2C)cc1	7.9	-0.9
CCC(=O)Nc1ccc2c(c1)OC[C@H](C)N(C(=O)Cc1ccccn1)C[C@H](C)[C@@H](OC)CN(C)C2=O	9.6	7.0
Cc1ccc(-c2ccc([C@H]3[C@@H](CO)N4C(=O)CN(C(=O)Nc5ccc(F)cc5)C[C@@H]34)cc2)cc1	-16.7	-16.2
C/C=C/c1ccc([C@H]2[C@@H](CO)N3CCCCN(C(=O)Nc4ccc(OC)cc4)C[C@H]23)cc1	.	?
O=C(C1CCCC1)N1CC(=O)N2[C@H](C1)[C@@H](c1ccc(C#Cc3cccc(F)c3)cc1)[C@@H]2CO	.	?
C[C@@H]1C=C(C(=O)N2CCN(C)CC2)O[C@H](OCc2ccc(CO)cc2)C1	3.2	6.6
C[C@H]1CN([C@@H](C)CO)C(=O)c2cc(NC(=O)Cc3cn(C)c4ccccc34)ccc2O[C@@H]1CN(C)CC1CC1	-9.1	-10.0
CCC(=O)N1CC(=O)N2[C@@H](CO)[C@@H](c3ccc(-c4cccnc4)cc3)[C@@H]2C1	-1.1	19.3
C/C=C/c1ccc2c(c1)O[C@H](CN(C)C(=O)c1ccccc1)[C@H](C)CN([C@@H](C)CO)S2(=O)=O	4.1	-1.1
O=C(c1ccc2c(c1)OCO2)N1CC(=O)N2[C@H](C1)[C@H](c1ccc(C#CCC3CCCC3)cc1)[C@@H]2CO	.	?
C[C@H]1CN([C@@H](C)CO)C(=O)c2cc(NC(=O)Cc3cn(C)c4ccccc34)ccc2O[C@H]1CN(C)Cc1ccc(-c2ccccc2)cc1	-18.9	-29.6
COc1ccccc1-c1ccc2c(c1)O[C@H](CN(C)C(=O)c1ccncc1)[C@@H](C)CN([C@@H](C)CO)S2(=O)=O	-0.4	-0.5
C[C@H]1CN([C@@H](C)CO)C(=O)c2c(c3ccccc3n2C)-c2ccccc2CO[C@H]1CN(C)C(=O)[C@H](Cc1ccccc1)N(C)C	-20.5	-27.2
CC=Cc1ccc2n(c1=O)C[C@H]1[C@H](CO)[C@@H](C(=O)NCCc3ccncc3)N[C@@H]21 (mixture of isomers)	-4.7	8.5
O=C(N[C@H]1CC[C@@H](CCNS(=O)(=O)c2ccc(F)cc2)O[C@@H]1CO)c1cnccn1	7.3	-9.9
COc1ccc(CN(C)C[C@H]2OCCCC[C@H](C)Oc3ccc(NC(=O)c4ccccc4)cc3C(=O)N([C@@H](C)CO)C[C@H]2C)cc1	.	?
COc1ccc(CN(C)C[C@H]2Oc3ccc(NS(=O)(=O)c4ccc(F)cc4)cc3C(=O)N([C@H](C)CO)C[C@H]2C)cc1	-9.5	-11.3
C[C@H]1CN([C@@H](C)CO)C(=O)c2cc(NC(=O)c3ccncc3)ccc2O[C@H]1CN(C)Cc1ccncc1	12.8	11.2
COCC(=O)Nc1ccc2c(c1)OC[C@H](C)N(C(=O)Cc1cccnc1)C[C@H](C)[C@H](OC)CN(C)C2=O	3.3	2.9
CN1C(=O)c2cc(NC(=O)c3ccccc3)ccc2OC[C@H]2O[C@H](CC(=O)NCC3CC3)CC[C@H]21	-8.2	-4.1
Cc1noc(C)c1NC(=O)N(C)C[C@H]1Oc2ccc(NC(=O)NC3CCCCC3)cc2CC(=O)N([C@H](C)CO)C[C@H]1C	6.6	11.9
Cc1ccccc1-c1ccc([C@@H]2[C@@H](CO)N3C(=O)CN(C(=O)Cc4ccccn4)C[C@H]23)cc1	-19.7	-2.6
COCC#Cc1ccc2c(c1)O[C@H](CN(C)Cc1ccc3c(c1)OCO3)[C@H](C)CN([C@H](C)CO)S2(=O)=O	-17.3	-33.8
O=C(C[C@@H]1C[C@@H]2c3cc(NC(=O)CC4CC4)ccc3O[C@@H]2[C@@H](CO)O1)NCc1ccccc1F	4.0	6.0
Cc1noc(C)c1S(=O)(=O)N(C)C[C@@H]1OCCCC[C@H](C)Oc2ccc(NC(=O)NC3CCCCC3)cc2C(=O)N([C@H](C)CO)C[C@H]1C	-12.2	-12.2
C[C@H]1CN([C@@H](C)CO)C(=O)c2cc(NC(=O)CCC(F)(F)F)ccc2O[C@H]1CN(C)S(=O)(=O)c1ccccc1	2.9	4.8
C[C@@H]1CN([C@@H](C)CO)C(=O)c2cc(NC(=O)Nc3ccc4c(c3)OCO4)ccc2O[C@H]1CN(C)C(=O)Nc1cccc2ccccc12	29.8	26.2
Cc1ccc(S(=O)(=O)N(C)C[C@@H]2Oc3ccc(NS(=O)(=O)c4ccc(Cl)cc4)cc3CC(=O)N([C@H](C)CO)C[C@H]2C)cc1	13.1	15.7
Cc1ccc(S(=O)(=O)N(C)C[C@H]2OCCCC[C@H](C)Oc3ccc(NS(C)(=O)=O)cc3C(=O)N([C@@H](C)CO)C[C@H]2C)cc1	3.2	6.9
O=C(NCC[C@@H]1CC[C@@H](NS(=O)(=O)c2cccc(F)c2)[C@H](CO)O1)C1CCC1	-5.2	-3.5

Next section:
molecule	Vaccinia stage Venus	Vaccinia stage
CN1C[C@H]2[C@@H](c3ccccc31)[C@H](CO)N2Cc1ccccc1Cl	-9.6	-22.3
O=C(C[C@@H]1CC[C@H]2[C@@H](COC[C@H](O)CN2C(=O)c2ccccc2F)O1)NCc1ccccc1	2.7	5.5
CO[C@H]1CN(C)C(=O)c2ccc(NC(C)=O)cc2OC[C@@H](C)N(Cc2cncnc2)C[C@@H]1C	2.9	4.0
COc1ccc(NC(=O)Nc2cccc3c2O[C@H](CN(C)Cc2ccncc2)[C@H](C)CN([C@@H](C)CO)C3=O)cc1	-1.7	8.3
C[C@@H]1CN([C@@H](C)CO)C(=O)c2cccc(NC(=O)C3CCCCC3)c2O[C@@H]1CN(C)Cc1ccncc1	0.3	-1.0
CC(=O)NCCCC[C@@H]1NC(=O)[C@@H]2C[C@H](C(=O)NCc3ccc(F)cc3)[C@H](c3ccc(O)cc3)N2C1=O	1.3	7.9
C[C@@H]1CN([C@@H](C)CO)C(=O)Cc2cc(NC(=O)Cn3cnnn3)ccc2O[C@@H]1CN(C)Cc1ccc(C(F)(F)F)cc1	3.7	8.9
COc1ccc(NC(=O)N(C)C[C@H]2Oc3c(NS(=O)(=O)c4ccc(Cl)cc4)cccc3C(=O)N([C@H](C)CO)C[C@@H]2C)cc1	-3.6	-3.4
C[C@@H]1CN([C@H](C)CO)C(=O)c2cc(/C=C/c3ccccc3)cnc2O[C@H]1CN(C)S(C)(=O)=O	0.0	2.8
C[C@@H]1CN([C@@H](C)CO)C(=O)Cc2cc(NC(=O)c3ccncc3)ccc2O[C@@H]1CN(C)S(=O)(=O)c1cccs1	12.6	14.5
C[C@H]1CN([C@@H](C)CO)C(=O)c2cc(NC(=O)Nc3ccccc3)ccc2O[C@@H]1CN(C)S(=O)(=O)c1cn(C)cn1	6.1	11.8
C[C@H](CO)N1C[C@H](C)[C@@H](CN(C)S(C)(=O)=O)Oc2ccc(NC(=O)C3CC3)cc2C1=O	6.8	7.8
COc1ccccc1C#Cc1ccc2c(c1)O[C@@H](CN(C)Cc1cncnc1)[C@H](C)CN([C@H](C)CO)S2(=O)=O	-24.7	-31.6
C[C@@H]1CN([C@@H](C)CO)C(=O)c2cc(NC(=O)CCC(F)(F)F)ccc2O[C@@H]1CN(C)C(=O)Nc1ccccc1	-21.1	-21.9
NCC[C@H]1CC[C@@H](NS(=O)(=O)c2ccc(Cl)cc2)[C@@H](CO)O1	5.3	-10.5
CN(C)CC(=O)N[C@H]1C=C[C@@H](CC(=O)NCc2ccc(Cl)cc2)O[C@H]1CO	1.1	-0.7
COCC(=O)Nc1ccc2c(c1)[C@@H]1C[C@H](CC(=O)NCCN3CCCCC3)O[C@H](CO)[C@@H]1O2	-0.7	1.7
CC(=O)N1[C@H](C(=O)N(C)C)[C@@H](CO)[C@@H]2Cn3c(ccc(-c4ccccc4)c3=O)[C@@H]21	11.6	6.9
COc1ccccc1-c1ccc([C@@H]2[C@H](CO)N3CCCCN(S(=O)(=O)c4cn(C)cn4)C[C@@H]23)cc1	-20.5	-8.7
CN(C)CC(=O)N1[C@@H](C#N)[C@H](c2ccccc2-c2ccc(C(=O)N(C)C)cc2)[C@@H]1CO	10.8	11.6
C[C@@H]1CN([C@H](C)CO)C(=O)c2cccc(NC(=O)Nc3ccc4c(c3)OCO4)c2O[C@H]1CN(C)Cc1ccncc1	1.4	-9.3
COc1ccc(NC(=O)N(C)C[C@H]2Oc3ccc(NC(=O)Cc4ccccc4)cc3C(=O)N([C@@H](C)CO)C[C@H]2C)cc1	1.6	-2.1
C[C@@H]1CN([C@H](C)CO)C(=O)c2cccc(NC(=O)NC3CCCCC3)c2O[C@H]1CN(C)Cc1ccc(C(F)(F)F)cc1	-3.9	-5.4
C[C@H](CO)N1C[C@H](C)[C@H](CN(C)S(=O)(=O)c2ccc(Cl)cc2)Oc2c(NC(=O)CCCCCC(=O)Nc3ccccc3N)cccc2C1=O	4.5	-0.3
O=C(NCC[C@H]1CC[C@H](NC(=O)C2CCCCC2)[C@H](CO)O1)Nc1ccc(Cl)cc1	-13.0	-8.3
C[C@@H]1CN([C@@H](C)CO)C(=O)c2ccccc2-c2ccccc2CO[C@@H]1CN(C)Cc1cccc(O)c1	-20.3	-14.3
CNC[C@H]1Oc2ccc(NC(=O)C3CCCCC3)cc2CC(=O)N([C@@H](C)CO)C[C@@H]1C	8.6	11.5
CCC(=O)Nc1ccc2c(c1)C(=O)N(C)[C@@H]1CC[C@@H](CC(=O)NCc3ccccc3Cl)O[C@@H]1CO2	-3.1	-1.0
C/C=C/c1cnc2c(c1)C(=O)N([C@@H](C)CO)C[C@H](C)[C@@H](CN(C)Cc1ccc(F)cc1)O2	20.5	18.1
CNC[C@H]1Oc2ccc(NS(C)(=O)=O)cc2CC(=O)N([C@H](C)CO)C[C@@H]1C	7.8	11.6

Screening data deposited in PubChem by Broad Institute.
